PD-1 reversal: activators reversing PD-1 mediated T-cell inhibition. activation, % (no concentration beside the values). AID 2316. primary human CD4 T cells, PD-L1 beads, CellTiter-Glo 96 h. 29,000 tested, under 10 active;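 active means replicate mean of 50% or more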;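 further: 0% = median vehicle wells and 100% = positive control; 100 nL library stock added to about 50 µL; numbers are from one replicate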
Shh pathway inh: blocks Sonic Hedgehog signaling; Shh-LIGHT2 Gli-luciferase reporter, 30 h; inhibition, % (concentration not given with the values); actives 2.1% (n = 22,000); AID 2313;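 active means replicate mean of 65% or more; inconclusive means mean lower but half the replicates past it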;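 further: pathway switched on by Shh-conditioned medium diluted 1 in 25 in low serum; 100 nL library stock added to about 40 µL; 0% = median of neutral wells and 100% = positive control level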
MITF inhib: blocks MITF activity; TRPM1 promoter luciferase, luminescence, 24 h; inhibition, % (test concentration not listed); actives 0.28% (n = 37,000);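 active means most replicates at 85% or more, or half of them and the mean; inconclusive means half reach 85% but not the mean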;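 further: human melanocyte line stably carrying TRPM1 promoter luciferase reporter; 0% = vehicle wells and 100% = a positive control; the first replicate is given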
YB-1 expr inh: YB-1 expression inhibition; U2OS, qRT-PCR YB-1 vs CDIP delta delta Cp, 16 h; stronger effect = higher value; zero = DMSO, each unit about twofold; delta delta Cp (YB-1 minus CDIP) (concentration not given with the values); actives 0.37% (n = 30,000);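 active means delta delta Cp rounded down to an integer at or above 3, about 3 SD of DMSO wells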;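 further: higher means less YB-1 transcript or more CDIP transcript relative to DMSO; stock transfer was 100 nL into about 100 µL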
* marks the source's active call; other numbers are inactive results; ? = inconclusive; . = not tested or not shown. Only part of the results is shown. The share of hits here may be higher or lower than overall.

smiles	PD-1 reversal	Shh pathway inh	MITF inhib	YB-1 expr inh
CC1OC(OC2C(OC(=O)C34CCC(C)(C)CC3C3=CCC5C6(C)CCC(OC7OC(CO)C(OC8OC(C(=O)O)C(OC9OCC(O)C(O)C9O)C(O)C8O)C(O)C7O)C(C)(CO)C6CCC5(C)C3(C)CC4)OC(COC3OCC(O)C(O)C3O)C(O)C2O)C(O)C(O)C1O (stereo not drawn)	1.1	-15.4	0.5	0.143
C[C@H](CO)N1C[C@H](C)[C@H](CN(C)S(C)(=O)=O)Oc2ccc(NS(=O)(=O)c3ccc(Cl)cc3)cc2C1=O	-1.1	.	-4.6	-0.039
C[C@H]1CN([C@@H](C)CO)C(=O)c2cc(NC(=O)c3ccncc3)ccc2O[C@H]1CN(C)S(=O)(=O)c1cccs1	-1.5	-0.6	0.2	-0.269
C[C@H]1CN([C@@H](C)CO)C(=O)c2cccc(N(C)C)c2O[C@@H]1CN(C)Cc1ccc(Oc2ccccc2)cc1	.	3.6	-8.0	0.0777
Cn1c(SCC(=O)Nc2ccc(Cl)cc2)nnc1-c1ccc(Br)cc1	-1.4	.	3.4	.
CS(=O)(=O)N(CC(=O)NC1CC2CCC1C2)c1ccc(Cl)c(C(F)(F)F)c1 (stereo not drawn)	-1.2	.	-4.1	.
CS(=O)(=O)N(CC(=O)Nc1cccc([N+](=O)[O-])c1)c1ccc(Br)cc1	0.9	.	0.5	.
COc1ccc(NS(=O)(=O)c2ccc(NC(=O)c3ccc(Br)cc3)cc2)nn1	1.0	.	34.6	.
C[C@@H]1CN([C@H](C)CO)C(=O)Cc2cc(N(C)C)ccc2O[C@H]1CN(C)C(=O)Nc1ccc2c(c1)OCO2	.	16.1	4.1	-0.258
C[C@@H]1CN([C@H](C)CO)C(=O)c2cccc(NC(=O)NC3CCCCC3)c2O[C@H]1CN(C)S(=O)(=O)c1ccccc1	-1.8	-7.9	-0.9	0.068
O=C(Nc1ccc(I)cc1C(=O)N1CCN(CCO)CC1)c1ccccc1Cl	0.6	.	-6.3	.
C[C@@H]1CN([C@H](C)CO)C(=O)Cc2cc(NC(=O)Cc3cn(C)c4ccccc34)ccc2O[C@@H]1CN(C)Cc1ccc(C(=O)O)cc1	-0.3	24.2	5.6	0.0685
COc1ccccc1-c1cc(=O)c2c(OC)cccc2o1	.	-49.8	-67.4	-0.087
C[C@@H]1CN([C@@H](C)CO)C(=O)c2cc(NS(=O)(=O)c3cccs3)ccc2O[C@H]1CN(C)Cc1ccc(C(=O)Nc2ccccc2N)cc1	-0.5	.	-12.2	0.0431
CCOC(=O)c1cnc2cc(C(F)(F)F)ccc2c1N(C)Cc1ccccc1	-2.7	?	21.8	0.708
Cc1ccc(S(=O)(=O)N(C)C[C@@H]2Oc3ccc(NC(=O)C4CCCCC4)cc3C(=O)N([C@@H](C)CO)C[C@H]2C)cc1	-0.7	-13.3	-9.3	0.551
Cc1cc(C(C)(C)C)c(O)c(C)c1CC1=NCCN1	-0.9	-8.2	-13.6	0.118
COc1ccc2c(c1)OC/C(=C\c1ccc(OC)c(O)c1)C2=O	.	?	1.9	-0.0554
C[C@@H]1CN([C@@H](C)CO)C(=O)c2cc(NS(=O)(=O)c3ccccc3)ccc2O[C@H]1CN(C)S(=O)(=O)c1ccc(F)cc1	-1.0	.	0.2	0.4
CC(=O)Nc1ccc(C(=O)CSc2nnc(C)s2)cc1	-0.9	.	-19.7	.
COC(=O)C(CC(C)C)NS(=O)(=O)c1ccc(-c2nnc(SC)n2C)s1 (stereo not drawn)	0.4	3.3	7.7	0.166
C[C@H]1CN([C@@H](C)CO)C(=O)c2cccc(NS(=O)(=O)c3cn(C)cn3)c2O[C@H]1CN(C)C(=O)Nc1ccc(C(F)(F)F)cc1	-0.9	5.4	-2.0	0.321
COc1ccc(NC(=O)Nc2c(SC)nsc2SC)cc1	0.7	.	9.6	-0.419
Cc1ccc(S(=O)(=O)Nc2cccc3c2O[C@@H](CN(C)S(=O)(=O)c2ccc(Cl)cc2)[C@@H](C)CN([C@@H](C)CO)C3=O)cc1	2.0	22.1	3.0	-0.35
Cc1ccc(S(=O)(=O)N(C)C[C@H]2OCCCC[C@@H](C)Oc3ccc(NS(=O)(=O)c4ccc(F)cc4)cc3C(=O)N([C@H](C)CO)C[C@@H]2C)cc1	.	.	45.2	-0.485
COc1cccc(C(=O)c2sc3nsc(SCc4ccccc4)c3c2N)c1	-7.6	45.7	-101.4	0.291
C[C@H]1CN([C@@H](C)CO)C(=O)c2cc(NC(=O)Nc3ccc4c(c3)OCO4)ccc2O[C@@H]1CN(C)C(=O)Nc1ccc(F)cc1	0.7	-1.8	-0.3	0.0973
O=C(Cc1ccccc1)c1cccs1	-0.3	.	5.4	-0.63
C[C@@H]1CCCCO[C@@H](CN(C)S(=O)(=O)c2cccs2)[C@@H](C)CN([C@H](C)CO)C(=O)c2cc(NC(=O)Nc3ccc(C(F)(F)F)cc3)ccc2O1	.	-9.3	10.6	0.146
CC(C)NC(=O)Nc1cccc2c1O[C@H](CN(C)Cc1ccc(Oc3ccccc3)cc1)[C@@H](C)CN([C@H](C)CO)C2=O	-3.2	21.1	37.5	1.2
CCc1nc(SCC(=O)Nc2ccc(OC)cc2)c2c3c(sc2n1)COC(C)(C)C3	-6.4	.	19.9	.
C[C@H](CO)N1C[C@H](C)[C@H](CN(C)Cc2ccccc2)Oc2ccc(NC(=O)C3CC3)cc2CC1=O	1.0	0.6	-8.6	0.0428
C[C@H](CO)N1C[C@H](C)[C@H](CN(C)C(=O)Nc2ccc3c(c2)OCO3)Oc2ccc(NS(=O)(=O)c3ccccc3)cc2C1=O	-2.0	.	-4.3	0.0953
C[C@H]1CN([C@@H](C)CO)C(=O)Cc2cc(NC(=O)Cn3cnnn3)ccc2O[C@H]1CN(C)S(=O)(=O)c1ccc(F)cc1	-0.9	-2.6	0.8	-0.291
Cc1noc(C)c1S(=O)(=O)Nc1ccc2c(c1)C(=O)N([C@H](C)CO)C[C@H](C)[C@H](CN(C)S(=O)(=O)c1ccc(F)cc1)OCCCC[C@@H](C)O2	.	-2.9	0.7	6.49e-05
COc1cc(NC(=O)COc2cc(C)ccc2C)c(C(=O)O)cc1OC	3.3	.	-6.9	.
CCCCCCCCN1C(=O)C(C(C)=O)=C(C)C1(C)O (stereo not drawn)	-37.2	-74.8	3.1	-0.0374
COc1ccc(CN(C)C[C@@H]2Oc3ccc(NC(=O)NC(C)C)cc3C(=O)N([C@@H](C)CO)C[C@H]2C)cc1	.	-5.4	3.1	-0.243
CC(C)NC(=O)N(C)C[C@H]1Oc2c(NC(=O)C3CCCCC3)cccc2C(=O)N([C@@H](C)CO)C[C@H]1C	2.9	-35.9	-6.2	-0.358
C/C=C(/C)C(=O)OC1Cc2c(ccc3ccc(=O)oc23)OC1(C)C (stereo not drawn)	-1.2	-5.2	10.5	0.427
COC(=O)c1ccc(C(=O)OC)c(NS(=O)(=O)c2ccc3c(c2)OCCO3)c1	-0.8	.	29.8	.
COc1ccc(S(=O)(=O)Nc2cccc3c2O[C@H](CN(C)S(=O)(=O)c2ccc(OC)cc2)[C@H](C)CN([C@@H](C)CO)C3=O)cc1	3.5	21.1	5.5	0.765
C[C@@H]1CN([C@H](C)CO)C(=O)Cc2cc(NS(=O)(=O)c3ccc(Cl)cc3)ccc2O[C@H]1CN(C)S(C)(=O)=O	.	.	-8.4	-0.0217
C[C@H]1CN([C@@H](C)CO)C(=O)c2cc(NC(=O)CCN3CCOCC3)ccc2O[C@@H]1CN(C)Cc1ccc2c(c1)OCO2	0.5	-16.0	2.6	0.299
O=CNCCc1c[nH]c2ccccc12	2.1	-6.7	16.6	-0.681
CN(C(=O)C(Cl)Cl)c1ccc(OC(=O)c2ccco2)cc1	0.4	-20.1	-1.1	3.72*
CN(C)CCCO[C@H]1[C@@H](C(O)CO)OC2OC(C)(C)O[C@@H]21 (stereo partly drawn)	-0.6	-82.6	-4.6	-0.336
COc1ccc(/C=C2\Cc3ccccc3C2=O)cc1	0.6	.	-3.9	0.468
O=C(COc1ccc([N+](=O)[O-])cc1)Nc1ccc2oc(-c3cc(F)c(F)cc3Cl)nc2c1	0.7	.	76.4	.
C[C@@H]1CN([C@H](C)CO)C(=O)c2cccc(NS(=O)(=O)c3ccc(Cl)cc3)c2O[C@H]1CN(C)C(=O)Nc1ccc(F)cc1	.	-26.7	-12.9	-0.319
COc1ccccc1NC(=O)C(C)NS(=O)(=O)c1ccccc1 (stereo not drawn)	-0.7	.	15.7	.
C[C@@H]1CN([C@@H](C)CO)C(=O)c2cc(NS(=O)(=O)c3cccs3)ccc2O[C@H]1CN(C)C	3.2	.	3.0	-0.257
C[C@@H]1CN([C@H](C)CO)C(=O)c2cccc(NC(=O)Nc3ccc4c(c3)OCO4)c2O[C@H]1CN(C)S(C)(=O)=O	1.0	-21.9	10.4	0.153
C=C[C@H]1[C@H](O[C@@H]2O[C@H](CO)[C@@H](O)[C@H](O)[C@H]2O)OC=C2C(=O)OCC[C@]21O	3.6	-13.7	-5.3	-0.226
COc1cc(NC(=O)c2ccc(Cn3cc(Cl)cn3)o2)c(C(C)=O)cc1OC	0.3	.	23.8	.
Cc1ccc(-c2nnc(Nc3cccc(O)c3)c3ccccc23)cc1S(=O)(=O)N1CCOCC1	-1.6	.	5.2	.

Already shown: 4 of the compounds above.
smiles	PD-1 reversal	Shh pathway inh	MITF inhib	YB-1 expr inh
C[C@@H]1CN([C@H](C)CO)C(=O)c2cccc(NC(=O)Nc3ccc4c(c3)OCO4)c2O[C@H]1CN(C)S(C)(=O)=O	1.0	-21.9	10.4	0.153
C=C[C@H]1[C@H](O[C@@H]2O[C@H](CO)[C@@H](O)[C@H](O)[C@H]2O)OC=C2C(=O)OCC[C@]21O	3.6	-13.7	-5.3	-0.226
COc1cc(NC(=O)c2ccc(Cn3cc(Cl)cn3)o2)c(C(C)=O)cc1OC	0.3	.	23.8	.
Cc1ccc(-c2nnc(Nc3cccc(O)c3)c3ccccc23)cc1S(=O)(=O)N1CCOCC1	-1.6	.	5.2	.

Next part
smiles	PD-1 reversal	Shh pathway inh	MITF inhib	YB-1 expr inh
COc1cccc(-n2nnnc2SCC(=O)Nc2ccccc2)c1	0.0	.	2.2	.
C[C@@H]1CN([C@H](C)CO)C(=O)c2cc(NS(=O)(=O)c3cn(C)cn3)ccc2O[C@H]1CN(C)C(=O)Nc1cccc2ccccc12	0.8	-36.3	-1.3	0.0966
C[C@H]1CN([C@@H](C)CO)C(=O)c2cc(NC(=O)Cc3cn(C)c4ccccc34)ccc2O[C@H]1CN(C)CC1CCCCC1	0.1	.	3.4	-0.873
C[C@H](CO)N1C[C@H](C)[C@@H](CN(C)C(=O)Nc2ccccc2)Oc2ccc(NC(=O)CCC(F)(F)F)cc2C1=O	1.4	11.7	-2.5	-0.139
Cc1ccc(S(=O)(=O)N(C)C[C@@H]2Oc3ccc(NC(=O)Cc4ccccc4)cc3CC(=O)N([C@H](C)CO)C[C@H]2C)cc1	-1.3	-27.9	2.0	0.135
C[C@H]1CN([C@@H](C)CO)C(=O)Cc2cc(NC(=O)CCN3CCOCC3)ccc2O[C@@H]1CN(C)C(=O)Nc1cccc2ccccc12	0.5	.	0.7	-0.387
CCN(CCS(=O)(=O)c1ccc(Cl)cc1)S(=O)(=O)c1ccc(Cl)cc1	0.0	.	-6.9	-0.168
COc1ccc2c(c1)nnc1n[nH]c(=O)n12	-0.9	-20.4	60.0	0.253
COc1ccc(CN(C)C[C@@H]2Oc3ccc(NS(=O)(=O)c4cn(C)cn4)cc3C(=O)N([C@H](C)CO)C[C@H]2C)cc1	2.3	27.5	11.4	-0.214
COc1ccc(NC(=O)N(C)C[C@H]2Oc3ccc(NC(=O)c4ccncc4)cc3C(=O)N([C@@H](C)CO)C[C@@H]2C)cc1	1.7	.	3.9	-0.14
C[C@H]1CN([C@@H](C)CO)C(=O)Cc2cc(NC(=O)Nc3ccc(C(F)(F)F)cc3)ccc2O[C@@H]1CN(C)C(=O)Nc1ccc(F)cc1	-0.6	4.6	33.2	0.201
CNC[C@@H]1Oc2c(NS(=O)(=O)c3ccc(OC)cc3)cccc2C(=O)N([C@@H](C)CO)C[C@@H]1C	2.1	-12.5	-5.2	-0.126
C[C@H](CO)N1C[C@H](C)[C@H](CN(C)Cc2ccc(C(=O)Nc3ccccc3N)cc2)Oc2ccc(NC(=O)Nc3ccc(F)cc3)cc2CC1=O	-4.4	.	9.2	0.275
O=C(c1ccccc1Oc1nnnn1-c1ccccc1)N1CCOCC1	1.5	.	-4.0	.
C[C@H]1CN([C@@H](C)CO)C(=O)Cc2cc(NS(=O)(=O)c3ccccc3)ccc2O[C@H]1CN(C)Cc1ccc(-c2ccccc2)cc1	1.5	-8.2	2.5	-0.174
